AF4-AF9 inh: inhibitors of AF4 peptide binding to AF9, primary screen, biochemical, AlphaScreen, biotin-AF4 peptide, FLAG-AF9, single point | Protein AF-9 (Homo sapiens), P42568 | inhibition, % at 10 µM | 350,000 tested, 0.47% active;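 active = every replicate reaching a set inhibition limit, whatever the replicate mean, cut at about 25% in these data; inconclusive = mean inhibition reaches that limit but some replicates miss it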;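 also: 0% = plate neutral control median and 100% = total signal loss; the record names both 10 and 1 µM as test concentration; the first replicate is given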
Calb FLC: C. albicans growth inhibition with fluconazole, primary screen, CaCi-2 strain, Alamar Blue fluorescence; C. albicans CaCi-2 (fluconazole-resistant clinical isolate) + fluconazole, 48 h; growth inhibition, % (concentration not given with the values); 300,000 tested, 0.57% active;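 active = most replicates above 75%; inconclusive = exactly half above 75%; inactive = most below 75%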;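 also: all wells also contain fluconazole at 8 µg/ml as a sub-toxic cotreatment; 0% = median of DMSO wells and 100% = median of geldanamycin control wells; wells of about 8 µL received 7.5 nL stock; the first replicate is given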
LANA-H2A inh: blockers of LANA interaction with H2A/H2B – biochemical, FP readout, HTS, primary screen. AID 2629, 2010. 320,000 tested, 0.6% active. cell-free LANA-H2A/H2B peptide, fluorescence polarization. inhibition, % (concentration not given with the values); in the data active = inhibition mostly above about 10%, no sharp cut-off; inactive = mostly below about 6.7%;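 also: stock transfer was 7.5 nL into about 10 µL; 0% = median of vehicle wells and 100% = median of positive control wells; one replicate is shown; the record names a cut of 25% in any replicate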
Target sequence (Q9QR71 whole entry, looked up): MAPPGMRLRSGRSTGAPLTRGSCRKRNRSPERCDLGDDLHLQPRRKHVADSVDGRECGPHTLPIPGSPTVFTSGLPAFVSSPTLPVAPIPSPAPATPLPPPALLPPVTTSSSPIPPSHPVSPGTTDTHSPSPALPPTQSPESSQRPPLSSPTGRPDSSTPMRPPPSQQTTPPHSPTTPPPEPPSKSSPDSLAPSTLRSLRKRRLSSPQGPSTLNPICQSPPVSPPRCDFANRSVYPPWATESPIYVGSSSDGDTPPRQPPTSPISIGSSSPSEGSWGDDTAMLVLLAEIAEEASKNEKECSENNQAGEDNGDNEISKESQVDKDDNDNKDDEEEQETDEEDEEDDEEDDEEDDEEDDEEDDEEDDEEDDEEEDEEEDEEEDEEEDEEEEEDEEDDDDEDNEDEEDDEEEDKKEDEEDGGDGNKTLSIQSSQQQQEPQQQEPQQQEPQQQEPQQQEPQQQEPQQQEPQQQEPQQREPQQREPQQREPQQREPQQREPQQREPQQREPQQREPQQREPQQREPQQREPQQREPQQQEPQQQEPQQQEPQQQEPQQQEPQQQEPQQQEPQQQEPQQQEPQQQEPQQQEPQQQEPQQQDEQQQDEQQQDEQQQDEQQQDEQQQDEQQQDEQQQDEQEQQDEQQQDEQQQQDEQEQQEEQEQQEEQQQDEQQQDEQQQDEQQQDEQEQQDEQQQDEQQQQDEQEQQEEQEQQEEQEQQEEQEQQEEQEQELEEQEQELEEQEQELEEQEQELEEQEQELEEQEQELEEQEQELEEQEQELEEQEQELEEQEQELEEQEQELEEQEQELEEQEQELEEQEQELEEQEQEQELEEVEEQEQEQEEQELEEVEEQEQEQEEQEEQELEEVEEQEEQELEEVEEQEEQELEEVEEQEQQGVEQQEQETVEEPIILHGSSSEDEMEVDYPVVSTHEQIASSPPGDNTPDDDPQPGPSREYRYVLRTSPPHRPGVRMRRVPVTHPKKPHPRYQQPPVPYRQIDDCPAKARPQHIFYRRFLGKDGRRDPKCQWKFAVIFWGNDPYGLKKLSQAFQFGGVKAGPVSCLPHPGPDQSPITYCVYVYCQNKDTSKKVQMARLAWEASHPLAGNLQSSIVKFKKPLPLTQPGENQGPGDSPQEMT
Vif A3G: inhibitors of Vif binding to APOBEC3G peptide, primary screen, biochemical, TR-FRET, GST-Vif 1-94, biotin-A3G peptide, dose response retest (AID 1117319); Virion infectivity factor (Human immunodeficiency virus type 1 group M subtype B (isolate …; TR-FRET GST-Vif / biotin-A3G peptide binding; higher % means a stronger effect; test concentration not given here; strong numbers were not always called active; inhibition, %; hits with a dose series show IC50 in µM; 260,000 tested, 0.57% active;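 active = above the screen mean plus three standard deviations and confirmed in dose response; inconclusive = results disagree or hit not tested in dose response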;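 also: Vif residues 1-94 fused to GST binding biotinylated APOBEC3G peptide 110-148; 0% = full assay without inhibitor and 100% = GST in place of GST-Vif; retest series ran down from 100 µM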
Bfl-1 A1 inh: caspase 3/7 activation in MEF A1-2A-BIM cells, primary screen, A1 inhibitor project, cell-based, luminescence, HTS; Caspase-Glo 3/7 luminescence, 3 h; percent of clofoctol response, vehicle zero; caspase activation, % (concentration not given with the values); 330,000 tested, 0.066% active;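 active = over half of replicate activation scores above 10%, or exactly half above 10 with the replicate mean above 10; inconclusive = replicate mean below 10 yet half the replicates above 10; inactive = over half of replicates below 10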;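 also: wells of about 30 µL received 50 nL stock; many hits fall short of the cut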
Beta cell apopt: inhibitors of cytokine-induced beta cell apoptosis, primary screen, luminescence; protection from apoptosis, % (concentration not given with the values); 300,000 tested, 0.8% active; INS-1E cytokine-induced death, ATP luminescence, 48 h; percent of positive-control rescue, neutral wells zero; AID 435005, 2010;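 active = all replicates at 75% or more, or half of them and the mean; inconclusive = half reach 75% but not the mean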;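 also: 0% = cytokine-treated negative control wells and 100% = positive control rescue; higher means more ATP so stronger rescue from cytokine killing; wells of about 40 µL received 100 nL stock; the first replicate is given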
T cruzi inh: inhibitors of intracellular T. cruzi growth, primary screen, luminescence, NIH3T3 host cells | T. cruzi beta-gal in NIH3T3, 90 h | inhibition, % (concentration not given with the values) | 300,000 tested, 1.4% active | AID 1885, 2009;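 active = mean inhibition across valid replicates above about 55%, limit read from the data; inconclusive = mean below that limit but half or more replicates reach it; inactive = mean below it, under half of replicates reach it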;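 also: signal also drops with host cell toxicity which is not excluded here; 0% = plate median of DMSO wells and 100% = zero luminescence signal; higher percent means less beta-gal luminescence so fewer parasites; stock transfer was 50 nL into about 50 µL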
RanGTP-Impb inh: inhibitors of RanGTP-importin-beta interaction, primary screen, biochemical, FRET, CFP-Ran, YFP-importin-beta, homogeneous | Ran GTPase (GTP-bound) - importin-beta complex | cell-free CFP-Ran/YFP-importin-beta FRET ratio | inhibition, % (concentration not given with the values) | 300,000 tested, 1.1% active | AID 2216, 2009;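 active = most replicates above 15%; inconclusive = exactly half above 15%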;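 also: 0% = DMSO wells and 100% = Ran loaded with GDP instead of GTP; wells of about 40 µL received 100 nL stock; the first replicate is given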
Starred values were filed as active, the others as inactive; ? = inconclusive; . = no result given; & = joins results of further samples.

smiles	RanGTP-Impb inh	Calb FLC	Vif A3G	AF4-AF9 inh	LANA-H2A inh	Bfl-1 A1 inh	Beta cell apopt	T cruzi inh
O=C(Nc1ccc(Cl)c(S(=O)(=O)N2CCOCC2)c1)c1ccccn1	3.8	-8	0%	-0.6	2.7	0.6	2	5
CN(C)C1NC(=O)c2cc(-c3ccccc3)sc2N1 (stereo not given)	2.0	29	-6%&2%	.	.	0.2	-2	-2
CSCC[C@H](NC(=O)[C@H]1CC[C@H](CNC(=O)[C@@H](N)Cc2ccccc2)CC1)C(=O)O	3.1	-4	-5%	2.4	-2.6	2.3	-6	10
O=C(CSc1nncs1)Nc1cc(-c2ccccc2)nn1-c1ccccc1	-0.4	3	7%	.	0.5	-0.4	7	-3
CC(C)Cc1nc2sc3c(=O)n(N)cnc3c2c2c1COC(C)(C)C2	-0.7	5	.	-0.5	-3.6	-0.1	0	8
CS(=O)(=O)Nc1ccc(C2=NN(C(=O)C3CCCCC3)C(c3cccs3)C2)cc1 (stereo not given)	-3.9	-16	0%	.	7.1	1.2	-1	-10
CCOC(=O)N1CCN(C(=O)c2cccc(S(=O)(=O)Nc3ccc(Br)cc3)c2)CC1	2.9	2	2%	-1.1	5.1	1.0	.	4
O=C(Nc1cccc(F)c1)Nc1ccc2c(c1)CCC2	1.1	-1	.	-1.0	3.0	-2.1	-1	17
COc1ccc(CNC(=O)[C@H](C)NC(=O)C2CCN(S(=O)(=O)c3ccc(F)cc3)CC2)cc1	1.7	-3	.	-0.5	-0.7	-0.5	5	10
Cc1ccc(S(=O)(=O)N(Cc2cccc(C(F)(F)F)c2)C(=O)N2CCN(C)CC2)cc1	2.7	0	-1%	-10	-1.8	-0.2	.	4
CCOC(=O)C(C)Sc1ncc(OC)c(=O)[nH]1 (stereo not given)	2.9	-6	-6%	.	-2.0	0.4	-4	-7
O=C(CSC1=NS(=O)(=O)c2cc(F)ccc2N1)NCCc1ccccc1	-2.6	-2	-3%	-3.8	2.8	-0.2	.	-1
CC(=O)Nc1ccc(NC(=O)CSc2ccc(-c3cccnc3)nn2)cc1	5.3	1	-13%	-1.6	11	-0.4	7	-8
CC[C@H](C)/C=C(C)/C=C/C(=O)Cc1cc(O)c(C)c(O)c1C=O	-7.2	0	.	3.8	-3.5	0.3	4	-22
Cc1ccc(OCCNC(=O)CN2C(=O)NC3(CCCC3)C2=O)cc1	?	-4	1%	-5.6	2.0	-0.4	-5	-8
CCCCC(CC)C(=O)N1CCN(C(=O)c2ccco2)CC1 (stereo not given)	1.9	-23	.	6.6	-3.8	-0.2	-4	6
NC(=O)c1c(-c2ccc(Cl)cc2Cl)csc1NC(=O)Cc1ccccc1	-1.5	8	6%	.	.	0.7	96*	5
CCOC(=O)c1sc2nc(-c3ccco3)c3c(c2c1N)CC(C)(C)OC3	-5.0	2	21%	.	0.5	-0.3	-9	-11
COc1ccccc1CNn1c(-c2cccc(C)c2)nc2ccccc2c1=O	-3.2	-7	-2%	-1.6	-5.1	0.5	-4	31
COc1cc(/C=N/NC(=O)c2cccnc2)ccc1OCC(=O)Nc1ccc(C)cc1	1.8	-10	9%	-0.4	4.2	0.7	-5	-17
Cc1cc(C(F)(F)F)nn1CC(=O)N(C)c1ccccc1	1.8	27	.	-3.4	-3.6	0.2	-4	-20
O=C(c1ccc(Cl)s1)N1CCOCC1	-4.5	-1	6%	.	1.2	0.0	0	-11
CC(C)(C)NC(=O)COc1ccc(CNCc2cccs2)cc1	0.9	-17	-4%	.	0.3	0.3	3	-1
CCOC(=O)c1ccc(NC(=O)C(CC)(CC)C(=O)OCC)cc1	-0.1	4	1%	.	1.3	1.2	0	0
Cc1cccc(-n2c(SCC(=O)NCC3CCCO3)nc3ccccc3c2=O)c1C (stereo not given)	.	.	6%	-13	-0.8	-0.2	1	.
CCOc1cc(C(=O)NCCOC)cc(OCC)c1OCC	9.1	-1	1%	.	-4.4	0.2	2	3
COC(=O)c1cn(C(=O)c2ccc(Br)o2)c2ccccc12	-0.3	-7	1%	.	-0.7	-0.1	2	-7
COc1cccc(C2=NN(S(C)(=O)=O)C(c3cccs3)C2)c1 (stereo not given)	1.8	-2	1%	3.4	-4.8	-0.4	-2	10
Cc1nc(N2CCCC2)c2nnn(Cc3ccccc3Cl)c2n1	10.0	-26	-1%	.	-1.0	0.0	-6	.
CC(C)c1ccc(O)c(NC(=S)NC(=O)CCc2ccccc2)c1	-2.8	-1	-12%	-0.1	-0.1	0.4	0	-7
Cc1nnc(NC(=O)C2CCN(S(=O)(=O)c3ccc(Cl)cc3)CC2)s1	4.2	-13	.	-2.9	3.9	0.8	-4	-3
O=C(NCCc1ccc(Cl)cc1)C1=CC=CN2CCS(=O)(=O)N=C12	.	.	-5%	2.6	0.2	0.2	4	.
O=C(N/C(=C/c1ccco1)C(=O)N1CCOCC1)c1cccs1	1.7	-11	?	-1.3	0.8	0.3	0	-4
CC(=NNC(=O)COc1cccc(C)c1)c1cccnc1	.	.	.	-0.8	-0.9	0.0	-6	.
O=C(CSCc1ccccc1Br)Nc1ccccc1	3.1	3	.	0.7	-5.2	0.1	-9	-9
Cc1csc(SCCn2c(N3CCN(c4ccccc4)CC3)nc3c2c(=O)[nH]c(=O)n3C)n1	1.6	-7	3%	.	4.0	-0.3	4	1
O=C(c1cnn(C(=O)c2ccco2)c1)c1ccccc1O	.	.	.	0.7	1.7	-0.3	0	.
CCc1nc(Sc2nnnn2-c2ccccc2)c2c3c(sc2n1)CCCC3	-1.8	-3	.	47*	-12	0.6	-8	15
Cn1c(NCCCO)nc2ccccc21	-1.8	2	-1%	.	2.5	1.3	-6	-7
c1ccc(N2CCN(c3ncnc4sc5c(c34)CCC5)CC2)cc1	-2.1	-41	7%	.	-1.7	-1.6	0	2
C[C@H](NC(=O)C1CC(=O)N(c2ccc3c(c2)OCO3)C1)C(=O)NC1CCCCC1 (stereo not given in full)	1.6	.	.	-0.9	2.6	-0.3	-2	-9
Oc1ccccc1N=Cc1sc2ccccc2c1Cl	?	16	.	.	2.4	0.2	3	-10
O=C(Oc1ccc(N(Cc2cccs2)C2=NS(=O)(=O)c3ccccc32)cc1)c1ccccc1F	-1.9	-13	-7%	.	6.4	-0.4	4	-19
N#CCc1ccc(NC(=O)c2ccc(CN3CCc4ccccc4C3)cc2)cc1	0.6	2	.	-9.6	-1.1	-0.3	8	1
Cc1ccc(OCC(=O)Oc2cccc(C)c2)cc1	2.6	-9	.	-1.8	-1.5	1.1	6	-3
Cc1cc(C)n(CC(O)COCc2ccccc2)n1 (stereo not given)	-4.6	-11	17%	.	1.2	1.7	-7	-9
CCCc1cc(=O)[nH]c2nnc(SCC(=O)Nc3nnc(CC)s3)n12	1.4	-12	1%	-1.9	.	.	.	-4
CC(=O)c1ccc(N2CCN(C(=O)/C=C/c3ccc(S(=O)(=O)N4CCOCC4)cc3)CC2)cc1	-5.5	-9	-7%	-0.8	3.5	0.2	1	-19
Cc1ccccc1-n1cc[nH]c1=S	.	-12	14%	-2.2	-5.0	1.7	-6	.
Cc1nc(CCN2C(=O)c3ccccc3C2=O)cs1	-1.1	-11	8%	.	-0.6	-1.8	-11	-3
C/C(=N\NC(=O)c1sccc1C)c1cccnc1	3.4	25	-3%	0.4	-3.9	-5.6	0	1
NC(=O)CCC(=O)N1CCCC(C(=O)c2ccc3c4c(cccc24)CC3)C1 (stereo not given)	0.8	27	2%	-8.8	-0.9	-0.3	-14	2
Oc1c(C(c2ccco2)N2CCC3(CC2)OCCO3)sc2ncnn12 (stereo not given)	4.1	14	12%	-10	-0.1	-0.8	-5	-14
O=C(Cc1ccccc1)Nc1ccc2c(c1)C(=O)N(CC1CCCO1)C2=O (stereo not given)	-0.7	1	.	-3.7	-0.7	1.1	-1	-13
CCn1c(=O)cc(SCC(=O)NCc2ccc(C)cc2)c2ccccc21	1.0	-8	-4%	.	1.0	-0.1	3	4
COc1ccc(/C=c2/sc3n(c2=O)C(c2ccccc2OC)C2=C(N=3)c3ccccc3CC2)cc1O (stereo not given)	-31	16	-4%&19%	.	1.9	-0.6	30	4

Continuation:
smiles	RanGTP-Impb inh	Calb FLC	Vif A3G	AF4-AF9 inh	LANA-H2A inh	Bfl-1 A1 inh	Beta cell apopt	T cruzi inh
Cc1ccc(NC(=S)N(CCCN2CCOCC2)Cc2ccccn2)cc1	-2.4	-7	.	13	6.4	0.2	-5	-11
Cc1ccc(OCCOC(=O)c2cccc(S(=O)(=O)N3CC(C)OC(C)C3)c2)cc1 (stereo not given)	.	.	-6%	-3.1	0.6	-0.6	1	.
CCC(=O)N1CCN(c2ccccc2NC(=O)COc2cccc(C)c2)CC1	-2.1	-9	1%	.	-1.2	0.2	9	33
COc1cccc(NS(=O)(=O)c2ccc(S(=O)(=O)N3CCCC3)cc2)c1	.	.	-9%	-11	.	-0.9	-6	.
COCCNS(=O)(=O)c1cc2[nH]c3c(c2cc1C)C(=O)CC(C)(C)C3	7.1	2	0%	-5.2	1.5	0.4	-1	3
CN1CCN(S(=O)(=O)c2ccc(NC(=S)NC(=O)C3CCCCC3)cc2)CC1	0.0	62	3%	1.1	2.7	0.0	3	7
CC1CN(C(=O)CN2C(=O)NC(C)(c3ccccc3)C2=O)CC(C)O1 (stereo not given)	-2.3	-7	1%	.	1.4	0.1	-8	-1
O=C(O)c1[nH]c2ccccc2c1C(c1c(F)cccc1Cl)c1c(C(=O)O)[nH]c2ccccc12	-3.4	1	.	-2.0	2.9	-0.2	.	-6
CC(C)(C)NC(=O)COC(=O)c1ccc(O)cc1	1.3	-3	27%	.	-7.1	-0.1	2	4
Cc1cccc(OCCCC(=O)NCCc2ccccc2)c1	-0.7	-5	-3%	-20	0.4	0.0	4	7
O=C(Nc1nc(-c2ccc3ccccc3c2)cs1)C1CCN(S(=O)(=O)c2cccs2)CC1	1.6	-6	-29%	4.0	.	0.0	33	44
Cc1ccnc(NC(=O)c2ccc(Cl)c(S(=O)(=O)N3CCCC3)c2)c1	-1.3	0	49%	-4.1	4.8	-11	-27	8
CCCC(=O)Oc1c(S(=O)(=O)c2ccc(C)cc2)c(C)nn1C(C)(C)C	7.3	7	30%	-1.4	-5.9	-0.2	-8	8
COc1ccc(NC(=O)c2cnc(SC)nc2C)c(OC)c1	?	0	2%	0.0	-3.3	-0.7	-1	-2
Cc1ccccc1CC(=O)N1CCCC1	1.4	4	.	-5.8	0.2	0.8	3	1
COc1ccc(S(=O)(=O)Nc2cccc3c2O[C@H](CN(C)C(=O)Nc2ccc4c(c2)OCO4)[C@@H](C)CN([C@H](C)CO)C3=O)cc1	.	.	.	0.0&0.6	1.6	-0.3	-1	.
CCc1ccc(CNn2cnnc2SCC(=O)NC(C)(C)C)cc1	2.5	-9	-6%	.	4.7	-0.1	.	1
Cc1ccc(-n2ncc3c(NNC(=O)c4ccco4)ncnc32)cc1Cl	6.1	8	.	-0.6	5.8	1.5	13	-31

Compound activity from PubChem.
